Compound activity deposited in PubChem BioAssay by National Center for Advancing Translational Sciences (NCATS).
gsp antagonist – qHTS for Antagonists of gsp, the Etiologic Mutation Responsible for Fibrous Dysplasia/McCune-Albright Syndrome: qHTS. gsp-mutant cells, cAMP HTRF, 30 min; control for the full effect not named in the record. actives 0.4% (n = 340,000). Potency, µM (doses to about 76.9 µM), inactives show at the highest dose activity change, negative = inhibition, actives largely listed as inhibitors; active = falling curve of any shape with a large fitted effect; inconclusive = falling curve, mostly with a smaller effect; inactive = flat or rising curve; cell line not stated here;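 further: intracellular cAMP measured with PDE inhibitor Ro 20-1724 present during compound exposure; potency means the concentration at half of the fitted maximal effect; on the % scale 0 is the no-effect control and ±100 the full control effect; nearly all actives have a fitted effect of over 65% in size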
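Measurement of cellular cAMP by homogeneous time-resolved fluorescence following a 30 min compound exposure at 37C. The PDE inhibitor […] was present throughout; the assay buffer was DPBS with 0.05% BSA and 0.005% Tween 20.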
ClpP mod – qHTS Assay for Activators of ClpP. ATP-dependent Clp protease proteolytic subunit (Bacillus subtilis (strain 168)), P80244. purified B. subtilis ClpP, FRET peptide cleavage, 20 min. Potency, µM (highest dose often 57.5 µM), for inactives: at the top dose activity change, negative = active. actives 1.9% (n = 340,000). AID 651965, 2013; active = well fitted falling curve with a large enough effect; inconclusive = small, poorly fitted or top-dose-only effect; inactive = no such curve, though single readings can be large or run the other way; further: potency means the concentration at half of the fitted maximal effect; the source files actives as falling curves though it sought activators and does not explain the sign; nearly all actives have a fitted effect of over 65% in size; many hits overshoot -100%
Target sequence (P80244 whole entry, looked up): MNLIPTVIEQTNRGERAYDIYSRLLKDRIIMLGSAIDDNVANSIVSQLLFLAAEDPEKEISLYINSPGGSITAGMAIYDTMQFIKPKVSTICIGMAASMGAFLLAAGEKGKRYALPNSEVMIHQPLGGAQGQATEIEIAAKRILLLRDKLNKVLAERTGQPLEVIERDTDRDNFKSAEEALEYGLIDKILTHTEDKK
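Buffer: 100 mM Tris/HCl pH8, 100 mM KCl, 0.05% low protease BSA, 2.5% glycerol, 0.01% Tween-20. ClpP 10 microg/mL final; 20 min RT; delta FRET normalized to ADEP and DMSO controls.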
Menin-MLL FL inh – qHTS Assay for Inhibitors Targeting the Menin-MLL Interaction in MLL Related Leukemias: Competition With Fluorescein Labeled MLL-derived Peptide. 290,000 tested, under 10 active. FP activity change, % at 61.4 µM. Fluorescence polarization, fluorescein-MLL peptide displacement from menin; inconclusive = falling polarisation curve, or a change in total fluorescence; inactive = total fluorescence flat and polarisation flat or rising; no compound was filed as active; the % refers to the polarisation; negative = inhibition;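 further: % of control where 0% means no effect; inhibitors lower the polarisation; unlabelled MLL peptide was the positive control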
TRPML1 agonist – qHTS for Agonists of the Human Mucolipin Transient Receptor Potential 1 (TRPML1). Mucolipin-1 (Homo sapiens), Q9GZU1. TRPML1-expressing cells, Ca2+ dye fluorescence, FDSS; host cell line not named in the record; reference of the full effect not given here. activation, % (no concentration beside the values). actives 0.12% (n = 410,000); in the data active = activation above about 50%; inconclusive = about 30% to 50%; inactive = below about 30%; further: 0% is about no effect; the text of the record puts the active cut at 80%
Target sequence (Q9GZU1 whole entry, looked up): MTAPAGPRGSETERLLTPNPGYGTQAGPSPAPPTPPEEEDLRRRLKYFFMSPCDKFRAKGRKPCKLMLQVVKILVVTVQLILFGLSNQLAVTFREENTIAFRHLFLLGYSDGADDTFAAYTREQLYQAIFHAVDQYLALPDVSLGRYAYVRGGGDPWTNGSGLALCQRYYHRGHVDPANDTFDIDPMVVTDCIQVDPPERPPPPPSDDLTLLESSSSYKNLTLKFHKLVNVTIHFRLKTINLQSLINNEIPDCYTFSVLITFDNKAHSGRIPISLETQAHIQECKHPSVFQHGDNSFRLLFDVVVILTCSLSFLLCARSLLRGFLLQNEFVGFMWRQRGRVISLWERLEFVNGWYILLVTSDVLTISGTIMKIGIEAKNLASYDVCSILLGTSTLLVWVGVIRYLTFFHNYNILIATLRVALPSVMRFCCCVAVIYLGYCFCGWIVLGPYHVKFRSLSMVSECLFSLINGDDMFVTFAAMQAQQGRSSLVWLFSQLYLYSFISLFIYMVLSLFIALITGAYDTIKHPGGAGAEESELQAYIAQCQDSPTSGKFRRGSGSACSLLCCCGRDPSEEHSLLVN
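TRPML1-DL cells, Tet-induced overnight (~16 h, 37 degrees C), loaded 45-90 min at room temperature with Ca8 no-wash calcium dye plus quencher. FDSS fluorescence: 10 s baseline, compound pin-transfer, 110 s agonist read, then EC80 54-4 (4uM final) and 110 s antagonist read.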
gsp agonist – qHTS for Agonist of gsp, the Etiologic Mutation Responsible for Fibrous Dysplasia/McCune-Albright Syndrome: qHTS. gsp mutant cells, cAMP HTRF, 30 min; control for the full effect not named in the record. Potency, µM (series often up to 76.9 µM), without a hit: at the highest dose activation (cAMP increase), hits mostly activators. actives 0.13% (n = 340,000). AID 624287, 2012; active = well fitted activation curve with a large enough effect; inconclusive = small, poorly fitted or top-dose-only effect, or another doubt; inactive = no such curve, though single readings can be large or run the other way; cell line not stated here;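 further: phosphodiesterase inhibitor Ro 20-1724 added with compounds to block cAMP breakdown; potency means the concentration at half of the fitted maximal effect; nearly all actives have a fitted effect of over 60% in size; about a fifth of the inactives were tested at one dose only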
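Cells stably selected in G418 were plated at 2000/well, grown 16-24 hr, then given compounds in DMSO with the PDE inhibitor […] (300 uM solution added) for 30 min at 37C; cAMP was read by HTRF.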
TRPML1 inh – qHTS for Inhibitors of the Human Mucolipin Transient Receptor Potential 1 (TRPML1); Mucolipin-1 (Homo sapiens), Q9GZU1; TRPML1-inducible cells, Ca2+ dye fluorescence, FDSS; hits give low values; inhibition of EC80 agonist-evoked calcium signal; activity change, negative = inhibition, % (concentration not given with the values); actives 0.02% (n = 390,000); in the data active means activity change below about -50%; inconclusive means about -30% to -50%; inactive means above about -30%;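 further: stimulus is agonist 54-4 at its EC80 concentration; on the % scale 0 is the no-effect control and ±100 the full control effect; compound concentration not given in the record; the text of the record puts the active cut at -80%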
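Calcium fluorescence in TRPML1-DL cells induced overnight with Tet: a 110 s read after compound pin addition, then a 110 s antagonist read after challenge with 54-4 at 4 uM final (EC80).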
* marks the source's active call; other numbers are inactive results; ? = inconclusive; nt = not tested or not shown; [ ] = remark or other dose. Compounds as they come. About 2.1% of those tested had a hit in this group.

SMILES	gsp antagonist	ClpP mod	Menin-MLL FL inh	TRPML1 agonist	gsp agonist	TRPML1 inh
CCOC(=O)C1CCN(C(=O)CCn2c(=O)c3cccn3c3cccnc32)CC1	10%	3.3%	nt	-0.5	?	39
O=C(Nc1ccc(S(=O)(=O)Nc2ccccn2)cc1)c1cccc(Cl)c1	-39%	nt	nt	-0.4	17%[15.4 µM]	8
CCOC(=O)c1c(C)nc(C)c(C(=O)OCC)c1-c1cccc(N)c1	2%	nt	3.2	-0.6	9%	4
Cc1ccc(C(=O)C2CCN(CC(=O)NC3CCCC3)CC2)cc1	-4%	nt	5.7	1.6	16%	10
CC(OC(=O)Cc1ccsc1)C(=O)Nc1ccc(Cl)cn1 (stereo unspecified)	4%	25µM*	nt	1.0	-7%	-6
CCOC(=O)C1=C(CS(=O)(=O)c2ccc(C)c(C)c2)NC(=O)NC1c1ccc(O)cc1 (stereo unspecified)	0%	nt	-0.7	1.1	24%	6
CC(=O)c1cccc(NC(=O)CSc2nc3ccccc3c(=O)n2CCCN2CCOCC2)c1	-12%	-0.1%	nt	-0.2	-47%[inhibitor]	-18
CCC(CC)c1nnc(NC(=O)c2ccc3c(c2)OCO3)s1	-3%	nt	4.5	0.1	-3%	-6
CCN1C(=O)c2ccccc2Sc2ccc(C(=O)NCCC(C)C)cc21	-15%	nt	5.3	5.9	-1%	-10
CCc1ccccc1NC(=O)CN(C)C(=O)c1cc(C2CC2)nn1-c1ccccc1	-20%	-3.6%	nt	1.3	-15%	2
COCc1nnc(NC(=O)CCN2C(=O)c3ccccc3C2=O)s1	8%	-0.3%	-0.1	2.7	35%	1
CC(C)CCNC(=O)C(CC(C)C)N(Cc1ccc2c(c1)OCO2)C(=O)c1snc(C(N)=O)c1N (stereo unspecified)	-5%	nt	1.7	1.3	-1%[15.4 µM]	29
COc1ccc(-c2nnc(SCC(=O)c3cc(C)n(Cc4cccs4)c3C)o2)cc1	19%	1.2%	5.5	-0.2	9%	-18
CN(CC(=O)Nc1cccc(F)c1)CC(=O)Nc1cccc2ccccc12	-8%	-1.8%	nt	0.6	30%	-8
CCOC(=O)C1CCN(Cc2coc3c(Cl)cc(Cl)cc3c2=O)CC1	6%	-0.2%	2.6	0.0	-31%	13
COc1ccc(Cn2nnnc2C(c2cc3ccc(OC)cc3[nH]c2=O)N2CCCCCC2)cc1 (stereo unspecified)	-10%	?	1.5	1.0	33%	11
CCN1CC(=O)Nc2cc(S(=O)(=O)N3CCOCC3)ccc21	-1%	nt	0.1	-0.6	-20%[15.4 µM]	-1
O=C(Cn1c(=O)n(Cc2nc(-c3ccccc3)no2)c(=O)c2cc3c(cc21)OCO3)Nc1cccc(C(F)(F)F)c1	nt	?	nt	0.7	nt	18
C/C(CC(=O)Nc1cccc2c1CCCC2)=N\NC(=O)c1ccccc1N	12%	28µM*	3.2	0.4	-30%	-4
CCOC(=O)N1CCc2c(sc3c2c(=O)n(Cc2ccccc2)c(=O)n3Cc2ccccc2F)C1	-1%	-0.8%	-4.2	0.3	17%	0
N#CCC(=O)N/N=C/c1c2ccccc2cc2ccccc12	-20%	-0.9%	?	-0.4	-53%[inhibitor]	4
Cc1ccc(CNC(=O)c2ccc(N3CCC4(CC3)CC(c3cccc(Br)c3)=NO4)c(NC(=O)c3ccc(Cl)c([N+](=O)[O-])c3)c2)cc1	-4%	-2.2%	nt	-0.5	4%	-10
Cc1nc(SCC(=O)OCc2ccccc2)c(C#N)c(-c2ccccc2)c1C(=O)Nc1ccccc1	-13%	-14%	9.5	0.2	-23%	-1
Fc1ccccc1N1CCN(Cc2cccnc2)CC1	-4%	nt	1.9	-0.3	1%[15.4 µM]	-7
Cc1cccc(CNS(=O)(=O)c2ccc(-c3coc(C)n3)cc2)c1	nt	-3.2%	nt	2.0	nt	34
Cn1ncc(Cl)c1C(=O)N1CCN(C23CC4CC(CC(C4)C2)C3)CC1	12%	-1.8%	nt	-0.5	-30%[15.4 µM]	23
CC1=C(CC(=O)c2ccccc2)C(=O)c2ccccc2C1=O	-9%	-2.8%	0.3	2.0	-24%	2
CCOc1ccc(S(=O)(=O)N2CCC(C(=O)NC3CCCCC3)CC2)cc1	9%	1.9%	nt	0.2	-9%[15.4 µM]	1
N/C(=N\c1nc2ccccc2o1)NC(=O)/C=C/c1ccccc1	-15%	nt	-0.2	1.7	24%	15
Cc1ccc(/C=N/NC(=O)c2cccnc2)o1	2%	nt	-1.4	-0.6	-6%	-1
CCCCCOC(=O)Nc1nnc(CCC)s1	9%	-1.7%	2.7	-0.5	14%	-7
COc1ccc(CN2CCN(Cc3ccc(OC)c(OC)c3OC)CC2)cc1	13%	2.2%	-19	-0.9	-2%[15.4 µM]	-11
CCc1nnc(NC(=O)c2cc(-c3ccncc3)nc3ccccc23)s1	-14%	-0.9%	7.3	1.5	8%	-7
COc1ccccc1N(CC(=O)N1CCC(C(N)=O)CC1)S(=O)(=O)c1ccccc1	-3%	-1.7%	-1.6	-0.3	8%[15.4 µM]	-11
COc1cc(C)c(S(=O)(=O)NCCCn2ccnc2)cc1C	8%	-1.8%	-0.8	0.5	1%	-19
O=C(NC1CCCCC1)C(c1ccncc1)N(C(=O)c1csnn1)c1cccc(F)c1 (stereo unspecified)	2%	0.1%	nt	-1.4	-4%[15.4 µM]	1
Cc1nc(N2CCN(C(=O)c3cnccn3)CC2)c2c3c(sc2n1)CC(C(C)(C)C)CC3 (stereo unspecified)	2%	nt	-0.3	0.5	-7%[15.4 µM]	22
O=C(O)CCNc1nc(C(F)(F)F)nc2ccccc12	3%	nt	-0.8	0.2	7%	15
CCOC(=O)c1cc(-c2ccc(OC)cc2)nn1-c1ccc(C(=O)O)cc1	35µM*	-3.7%	-0.5	0.8	-3%	7
Cc1noc(C)c1S(=O)(=O)Nc1ccc2c(c1)C(=O)N([C@H](C)CO)C[C@H](C)[C@@H](CN(C)C(=O)NC(C)C)O2	-7%	-7.2%	nt	-0.3	nt	2

For reference, part of the list above.
SMILES	gsp antagonist	ClpP mod	Menin-MLL FL inh	TRPML1 agonist	gsp agonist	TRPML1 inh
CCOC(=O)c1cc(-c2ccc(OC)cc2)nn1-c1ccc(C(=O)O)cc1	35µM*	-3.7%	-0.5	0.8	-3%	7
Cc1noc(C)c1S(=O)(=O)Nc1ccc2c(c1)C(=O)N([C@H](C)CO)C[C@H](C)[C@@H](CN(C)C(=O)NC(C)C)O2	-7%	-7.2%	nt	-0.3	nt	2

(continued)
SMILES	gsp antagonist	ClpP mod	Menin-MLL FL inh	TRPML1 agonist	gsp agonist	TRPML1 inh
Cc1cc(C)c(NC(=O)Cn2c(=O)n(Cc3ccco3)c(=O)c3ccccc32)c(C)c1	-4%	-2.0%	0.3	0.0	-30%	9
CCN1CCN(C(=O)CCc2nnc(CCc3ccc(OC)cc3)o2)[C@@H](C)C1=O	5%	-0.9%	nt	0.6	?	?
O=C(CSc1ccc(F)cc1)N1CCN(S(=O)(=O)c2ccccc2)CC1	-1%	-0.2%	-0.8	0.1	-169%[inhibitor]	60
Cc1ccc(CNc2ccc(CNc3ncn[nH]3)cc2)cc1	2%	0.5%	-0.5	2.4	-25%	18
Cc1scc(-c2n[nH]c(=S)n2Cc2ccccc2)c1C	4%	-5.9%	4.7	5.0	?	-25
Cc1nn(Cc2c(F)c(F)c(F)c(F)c2F)c(C)c1NC(=O)c1c([N+](=O)[O-])cnn1C	2%	0.4%	3.1	2.0	0%	-7
Cc1c(C(=O)NNC(=S)Nc2ccc(S(N)(=O)=O)cc2)oc2ccccc12	-1%	27%	2.6	-0.4	6%	-7
COc1ccc(/C=N/NC(=O)CCC(=O)Nc2ccc(Br)cc2)c(OC)c1	-10%	0.3%	-2.2	-1.2	-18%[15.4 µM]	6
CC1CN(Cc2ccccc2)c2ccccc2NC1=S (stereo unspecified)	-33%	0.6%	nt	2.7	-31%	38
C=C1CCN([C@H](C(=O)NCc2ccc(OC)cc2)C(C)C)S(=O)(=O)c2ccccc21	11%	-2.8%	9.8	0.1	?	1
CS/C(N)=N/C(=S)Nc1cccc(Cl)c1	5%	nt	3.9	1.3	17%	-13
CN(C)S(=O)(=O)Nc1ccc(Oc2ccccc2)cc1	-1%	-2.6%	-0.4	-0.1	?	21
CCn1cc(C(=O)OC(C)C(=O)Nc2c(C)n(C)n(-c3ccccc3)c2=O)c(=O)c2ccc(C)nc21 (stereo unspecified)	9%	-2.6%	-1.8	0.2	-29%	8
CCn1c(COc2ccccc2C(N)=O)nc2ccccc21	5%	0.1%	2.7	0.4	0%	6
Cc1ccnc(NC(=O)CCC(=O)N(CC(=O)NCc2ccc(F)cc2)Cc2ccco2)c1	-29%	nt	0.8	-0.4	10%[15.4 µM]	32
Cc1ccccc1C(=O)Nc1nnc(CC(=O)N/N=C/c2ccco2)s1	3%	nt	5.9	0.1	21%[15.4 µM]	-17
CCOc1ccccc1OCC(=O)Nc1ccccc1C(=O)NC1CC1	-1%	nt	nt	-0.2	2%[15.4 µM]	-9
O=[N+]([O-])c1ccc(Nc2ccccc2O)c([N+](=O)[O-])c1	nt	-0.3%	nt	0.6	16%	8
CC1=C(C(=O)Nc2ccccc2C)C(c2cccnc2)n2nc(SCc3ccccc3)nc2N1 (stereo unspecified)	nt	1.2%	nt	0.4	nt	4
CN(CC(=O)Nc1ccc(Cl)c(Cl)c1)C(=O)C12CC3CC(CC(C3)C1)C2	?	1.8%	-1.7	-0.2	-42%[inhibitor]	-5
CSc1nc(-c2ccccc2)nc2c1COC(C)(C)C2	-8%	-0.5%	0.2	4.5	-2%	18
O=C(CNC(=O)COc1ccccc1)NCCN1CCOCC1	3%	0.5%	nt	1.0	31%	-2
CC(C)(C)C1CCC(=NNC(=O)c2ccco2)CC1 (stereo unspecified)	5%	1.0%	nt	-0.1	-4%	2
O=c1c2ccccc2c(=O)n(-c2ccccc2)n1-c1ccccc1	11%	-4.1%	nt	-0.1	24%[15.4 µM]	8
O=C(N/N=C/c1ccc([N+](=O)[O-])s1)c1ccncc1	-11%	nt	15	-0.2	?	-3
CC(C)n1cc(/C=C2/NC(=O)N(c3cccc(Cl)c3)C2=O)c2ccccc21	0%	1.2%	8.0	0.6	-9%	42
